Mtb bLac sens – beta-lactam sensitization of Mtb H37Rv. M. tuberculosis H37Rv growth with meropenem, percent inhibition; hits of this screen are not shown here. inhibition, % at 25 µM. 330,000 compounds, 0.27% hits;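 active means about 74% or more and at least 40 points above the plate without the antibiotic, then above 30% in a dose series; inconclusive means first-round hits that could not be retested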;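 further: growth measured after seven days incubation then overnight dye step; 0% = bacteria only wells and 100% = bacteria with antibiotic; twin plates without the antibiotic show which effects depend on it; some results filed as inactive read as strong as hits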
RecA intein inh – Mtb RecA intein splicing inhibition. cell-free RecA intein splicing, fluorescence. 290,000 compounds, 0.75% hits. inhibition, %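 (about 9 µM by stock and volumes)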; in the data active means inhibition above about 30%; inconclusive means no clear call, values can overlap the other calls;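 further: 0% = vehicle wells and 100% = reference inhibitor control wells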
Target sequence (P9WHJ3 whole entry, looked up): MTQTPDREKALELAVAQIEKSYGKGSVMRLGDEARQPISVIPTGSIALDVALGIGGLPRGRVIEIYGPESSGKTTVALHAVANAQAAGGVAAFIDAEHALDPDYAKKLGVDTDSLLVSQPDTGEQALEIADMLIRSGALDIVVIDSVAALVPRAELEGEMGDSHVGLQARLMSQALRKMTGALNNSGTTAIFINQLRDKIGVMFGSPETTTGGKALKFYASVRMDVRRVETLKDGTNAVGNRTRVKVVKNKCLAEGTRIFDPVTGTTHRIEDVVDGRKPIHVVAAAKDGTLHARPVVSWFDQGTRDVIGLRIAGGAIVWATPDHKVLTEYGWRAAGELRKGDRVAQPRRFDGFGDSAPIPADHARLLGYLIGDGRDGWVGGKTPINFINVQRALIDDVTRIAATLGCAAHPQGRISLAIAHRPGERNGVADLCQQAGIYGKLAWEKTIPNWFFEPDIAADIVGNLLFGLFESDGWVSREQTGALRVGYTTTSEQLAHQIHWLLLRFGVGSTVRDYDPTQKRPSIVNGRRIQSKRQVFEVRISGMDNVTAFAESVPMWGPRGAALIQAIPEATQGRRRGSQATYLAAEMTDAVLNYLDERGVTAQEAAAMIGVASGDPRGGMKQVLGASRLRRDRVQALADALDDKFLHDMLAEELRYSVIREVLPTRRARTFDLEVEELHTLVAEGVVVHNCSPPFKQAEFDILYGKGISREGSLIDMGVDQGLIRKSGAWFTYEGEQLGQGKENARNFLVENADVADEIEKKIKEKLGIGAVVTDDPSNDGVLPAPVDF
Mtb growth – M. tuberculosis H37Rv growth inhibitors, H37Rv strain (AID 1626); M. tuberculosis H37Rv growth inhibition; higher % means a stronger effect; inhibition, % at 10 µM, or IC50 in µM where a hit was titrated; 220,000 compounds, 0.95% hits;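 active means confirmed in a dose series; inconclusive means inhibition above 80% but not taken into the dose series; inactive means below 80% or under 30% at every dose of the series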;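 further: bacteria incubated seven days before Alamar blue readout; 0% = bacteria only wells and 100% = bacteria with antibiotic wells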
Arbovirus inh – antivirals against arbovirus infection; 200,000 compounds, 0.37% hits; arbovirus infection cell-based antiviral screen; AID 1251; inhibition, % at 10 µM;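 active means inhibition from about 30%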;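 further: bluetongue infection of BSR cells; cell survival read as ATP light after 72 h; 0% = infected wells without compound and 100% = uninfected wells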
YopH inh – YopH (Yersinia) phosphatase inhibition; AID 898; fluorescence Ex485/Em525; 140,000 compounds, 0.16% hits; inhibition, %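 (about 10 µM by stock and volumes)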;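 active means inhibition of 50% or more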;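 further: controls were vehicle for no effect and minimum signal wells for full effect; inactives centre near -20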
Arbovirus inh repeat – further read-out of Arbovirus inh, marked with its call; inhibition, %; measured here: 10K subset replicate screen; many hits read low in the repeat;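 first of two repeat runs on a subset; 0% = infected and 100% = uninfected wells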
* marks the source's active call; other numbers are inactive results; ? = inconclusive; · = no result given. These rows are one share of the data; count on the stated rates, not on these rows.

SMILES | Mtb bLac sens | RecA intein inh | Mtb growth | Arbovirus inh | YopH inh | others
COc1ccc(CC2CCOC2=O)cc1 (stereo unspecified) | -11 | -1.6 | 2% | -1 | -34 | Arbovirus inh repeat=-5
Cc1cccc(N2CCN(C(=O)c3ccc(CS(=O)Cc4cccc(Cl)c4)o3)CC2)c1C (stereo unspecified) | 2 | 0.3 | · | · | ·
CC1CN(S(=O)(=O)Cc2ccccc2)CC(C)O1 (stereo unspecified) | -9 | -0.7 | 2% | 0 | -16
COc1ccc(-c2c(C)oc3c(CN4CCOCC4)c(O)ccc3c2=O)cc1 | -9 | -1.4 | -3% | · | ·
C(=N\n1cnnc1)/c1cn(Cc2ccccc2)c2ccccc12 | 7 | 1.7 | -2% | 13 | -38
Cc1ccccc1-n1nc2c(c1NC(=O)c1ccc(Br)o1)CSC2 | -8 | 5.6 | 0% | 11 | -45
CCCC(c1nnnn1CC1CCCO1)N1CCN(c2ccccc2)CC1 (stereo unspecified) | -2 | 0.1 | 1% | 2 | ·
O=C(CCC(=O)N(CC(=O)NC1CCCC1)C1CCCC1)Nc1ccccn1 | -8 | 0.9 | -6% | 5 | -17
Cc1ccc(-c2cc(C(=O)NC3CCCC3)no2)cc1 | 4 | -2.5 | · | · | ·
Cc1oc(-c2ccccc2F)nc1CS(=O)CC(=O)NCc1ccccn1 (stereo unspecified) | -4 | -1.2 | · | · | ·
COC(=O)C(Cc1ccccc1)N1CCS(=O)(=O)CC1 (stereo unspecified) | -3 | -1.3 | 1% | 5 | ·
Cc1cc(N)ccc1S(C)(=O)=O | 2 | 1.1 | -9% | 2 | -6
COc1cccc(C(=O)Nc2ccccc2N2CCCC2)c1 | -4 | -2.7 | -3% | -4 | -13
COc1ccc2[nH]c(=S)cc(C)c2c1 | -1 | 3.0 | -11% | · | ·
COc1ccc(NC(=O)CC2C(=O)N(c3ccc(F)cc3)C(=S)N2NC(=O)c2ccccc2)cc1 (stereo unspecified) | -5 | 1.1 | 1% | 8 | -30
CCOC(=O)c1c(C)[nH]c(C(=O)OCC(=O)Nc2sccc2C(N)=O)c1C | -11 | -2.4 | · | · | ·
NC(=O)N/N=C/c1sc(N2CCCCC2)nc1-c1cccs1 | 6 | -5.5 | · | · | ·
O=C1CC2(CCCC2)CC(=O)N1c1ccccc1 | -6 | 2.3 | · | 11 | ·
CCC(C)NC(=O)N1c2ccccc2Sc2ccccc21 (stereo unspecified) | 80 | 0.1 | 8% | · | ·
CCn1c(/C=C/c2ccccc2)nc2ccccc21 | 47 | 3.7 | 1% | -9 | -20
CCN(CC)c1ccc(/C=C(/C#N)C(=O)NCc2ccccc2)o1 | 10 | -4.1 | 1% | 7 | -21
CCN(CC)S(=O)(=O)c1cc(NC(=O)Cn2cnc3ccccc3c2=O)ccc1C | -3 | · | -23% | 4 | 1
CCc1nnc(NC(=O)c2cc(S(=O)(=O)N3CCCCC3)ccc2N2CCOCC2)s1 | 1 | 2.6 | 3% | -3 | ·
CCCC(=O)NC(NC(=S)Nc1ccc(S(N)(=O)=O)cc1)C(Cl)(Cl)Cl (stereo unspecified) | -2 | -1.3 | -1% | -1 | -14
CCOC(=O)N1CCN(C(=O)c2ccc(OC)c(S(=O)(=O)N3CCOCC3)c2)CC1 | -1 | 1.8 | 4% | -1 | ·
(continued)
SMILES | Mtb bLac sens | RecA intein inh | Mtb growth | Arbovirus inh | YopH inh | others
CCn1ccnc1CN1CCCC(C(=O)c2cccc(C(F)(F)F)c2)C1 (stereo unspecified) | 27 | 1.3 | 9% | 8 | ·
Cc1ccc(OCC(=O)NCCS(=O)(=O)N2CCN(c3ccccc3)CC2)cc1 | -11 | 0.1 | · | · | ·
COc1ccccc1-n1nnnc1SC(C)C(=O)NC1CCCC1 (stereo unspecified) | -4 | 0.8 | · | · | ·
CCN(CC)CCOC(=O)C1c2ccccc2Oc2ccccc21 | -4 | -3.1 | -2% | 9 | -9
Cc1nn(C)cc1/C=N\NC(=O)c1csc2c1CCCC2 | 1 | -2.6 | · | · | ·
CCN(CC)c1ccc(C(=O)OCC(=O)Nc2cccc(S(=O)(=O)NC3=NCCCCC3)c2)cc1 | 3 | 5.0 | -2% | -20 | -24
COc1ccc(CC(=O)Nc2ccc(OC)c(NC(=O)c3ccco3)c2)cc1 | 13 | -0.9 | 11% | -12 | -42
CCN(CC)C(=O)c1ccc(NS(=O)(=O)c2ccc3[nH]c(=O)[nH]c3c2)cc1 | -2 | -1.7 | · | · | ·
COCCCNC(=O)c1c(F)c(F)c(F)c(F)c1F | -4 | -0.4 | -5% | 0 | -33 | Arbovirus inh repeat=1
CCOC(=O)c1nn(-c2ccccc2C)c(=O)c2c(N)scc12 | 0 | 48* | 5% | 3 | ·
COC(=O)CNC(=O)COC(=O)c1ccc(Cl)nc1 | -9 | 0.8 | 2% | 1 | ·
CCC(C)(C)NC(=O)C(c1cccn1C)N(C(=O)Cn1nnc2ccccc21)c1ccc(NC(C)=O)cc1 (stereo unspecified) | 6 | 1.2 | 2% | 0 | ·
CC1NC(=O)NC1CCCCCC(=O)NCCc1ccccc1 (stereo unspecified) | 11 | 6.9 | -2% | 11 | -32
CCCOc1ccc(N2C(=O)C/C(=C\c3ccccc3)C2=O)cc1 | -5 | · | 4% | · | ·
N#Cc1nc(COc2ccccc2Cl)oc1N1CCCCCC1 | · | 0.2 | 4% | 6 | -11 | Arbovirus inh repeat=3
COC(=O)c1cn(NC(=O)C2CCCCC2)c(=O)c2ccccc12 | -3 | 1.6 | -2% | 6 | -9 | Arbovirus inh repeat=6
O=C(CN1CCN(Cc2ccccc2)CC1)N/N=C/c1ccc(Br)s1 | 5 | 5.8 | 6% | · | ·
O=C(Nc1ccccc1N1CCN(c2ccc(F)cc2)CC1)C1CCCCC1 | · | 1.0 | 4% | 0 | -41
c1ccc(CSc2nnc(-c3cccs3)o2)cc1 | 9 | 5.9 | 50% | 0 | -40
CC1=NN(c2ccccc2)C(=O)/C1=C\c1cc(C)n(-c2cccnc2)c1C | -11 | 33* | -9% | · | ·
CCOC(=O)CCP(=O)(O)C(O)(c1ccccc1)c1ccccc1 | -15 | -0.8 | 0% | 10 | -37
CC(=O)N(CN1C(=O)C2CC=CCC2C1=O)c1cccc(Cl)c1 (stereo unspecified) | -5 | -3.6 | -10% | 4 | -2
COc1ccc(-c2nn(-c3ccccc3)cc2C(=O)NCCCn2ccnc2)cc1 | 18 | 1.2 | -3% | -7 | -6
COC(=O)c1ccccc1NC(=O)CCn1c(=O)oc2ccccc21 | 6 | -2.2 | · | · | ·
Cc1nc(C)c(-c2csc(NCc3ccco3)n2)s1 | -3 | 2.8 | 9% | -5 | -31

Of the compounds above, these contain a cyano group.
SMILES | Mtb bLac sens | RecA intein inh | Mtb growth | Arbovirus inh | YopH inh | others
CCN(CC)c1ccc(/C=C(/C#N)C(=O)NCc2ccccc2)o1 | 10 | -4.1 | 1% | 7 | -21
N#Cc1nc(COc2ccccc2Cl)oc1N1CCCCCC1 | · | 0.2 | 4% | 6 | -11 | Arbovirus inh repeat=3

Next structures:
SMILES | Mtb bLac sens | RecA intein inh | Mtb growth | Arbovirus inh | YopH inh | others
CCc1cccc(NC(=O)c2ccc(Cn3nc(C)cc3C)o2)c1 | 0 | 2.4 | 4% | -5 | -1
COc1ccc(C(=O)NC(=S)NNC(=O)c2ccc3ccccc3n2)cc1 | 5 | · | 5% | · | ·
COc1cccc(NC(=O)COC(=O)COc2cccc3c2OC(C)(C)C3)c1 | -6 | 1.3 | · | · | ·
O=C(COc1ccc2ccccc2c1)N1c2ccccc2Sc2ccccc21 | ? | 11 | 2% | -7 | -12
O=C(NCc1ccccc1)C(c1cccs1)N(C(=O)c1csnn1)C1CC1 (stereo unspecified) | -14 | · | 5% | -2 | -46
Cc1ccc2c(c1)cc(CN(Cc1ccco1)S(=O)(=O)c1ccccc1)c1nnnn12 | -6 | -0.1 | -7% | 3 | -20
Cc1ccc(NC(=O)CCC(=O)N2CCOc3ccccc32)c(Cl)c1 | -4 | -2.2 | · | · | ·
COc1cc(/C=N/NC2=NS(=O)(=O)c3ccccc32)cc(OC)c1OC | 11 | -4.0 | · | · | ·
CCC1(c2ccccc2)NC(=O)N(CC(=O)Nc2nnc(C3CC3)s2)C1=O (stereo unspecified) | -22 | 0.6 | · | · | ·
CC(C)(NO)/C(=N/O)c1cccs1 | -4 | 2.6 | 5% | 10 | -21
CCOC(=O)c1c(C)c(C(=O)NC2CCCCCC2)c(C)n1C | · | · | -3% | -4 | -17
CCCOc1ccc(N2C(=O)CC(N3CCN(c4ccc([N+](=O)[O-])cc4)CC3)C2=O)cc1 (stereo unspecified) | -4 | -0.9 | · | · | ·
S=c1[nH]c2cc(Cl)ccc2s1 | 1 | 0.9 | 32% | 13 | -13
O=C(c1ccc2ccccc2c1)N1CCN(c2ccccn2)CC1 | -3 | 0.8 | · | · | ·
COC(=O)C1Cc2ccccc2CN1S(=O)(=O)c1ccc(C)cc1 (stereo unspecified) | -11 | 1.2 | · | · | ·
CCOc1ccc(NC(=O)CC2SC(=O)N(c3ccccc3)C2=O)cc1 (stereo unspecified) | 84 | 5.8 | 75% | -4 | ·
Cc1ccc(C(=O)N/C(=C/c2ccccc2F)C(=O)NCCCn2ccnc2)cc1 | -10 | -8.1 | · | · | ·
Cc1cccc(N(CC(=O)NC2CCCC2)C(=O)c2nsc(Cl)c2Cl)c1C | -6 | 2.5 | -6% | -4 | ·
CC(=C/c1ccccc1)/C=N/NC(=O)c1cc(C)oc1C | -13 | 3.0 | -1% | -15 | -4
Cn1c(-c2ccc(Cl)nc2)nc2cc(Cl)ccc21 | -1 | -0.3 | · | · | ·
COc1ccc(C(=S)N2CCC(C(N)=O)CC2)cc1Br | 4 | -0.8 | 5% | 10 | ·
O=C(CCn1cnc2ccccc2c1=O)Nc1ccc(S(=O)(=O)N2CCCCC2)cc1 | 9 | 0.5 | -2% | -2 | -34
O=c1[nH]c(CSc2ncn[nH]2)nc2ccccc12 | -8 | -0.9 | -10% | · | ·
COc1ccccc1N1CCN(/N=C/c2c(C)nn(-c3ccccc3)c2C)CC1 | 72 | -0.9 | 7% | -3 | -16
COc1ccc(OC)c(C2=Nn3c(nnc3-c3ccncc3)SC2)c1 | -2 | 1.4 | · | 18 | · | Arbovirus inh repeat=17
O=C(Nc1nc(-c2ccc(Br)cc2)cs1)c1cccnc1 | -2 | 1.1 | 4% | -9 | ·
COc1ccccc1OCC(=O)Nc1ccc(S(=O)(=O)N2CCCC2)cc1 | -3 | 1.6 | · | · | ·
CC1CCC(C(C)C)C(OC(=O)C2=C3c4ccccc4S(=O)(=O)N3CC2)C1 (stereo unspecified) | 1 | 1.4 | -3% | 0 | -25
Cc1nc2ccccc2cc1C(=O)O | 3 | -3.2 | -1% | 7 | -17

Sorted by length of the SMILES (smallest number first): some entries from above.
SMILES | Mtb bLac sens | RecA intein inh | Mtb growth | Arbovirus inh | YopH inh | others
CC(=C/c1ccccc1)/C=N/NC(=O)c1cc(C)oc1C | -13 | 3.0 | -1% | -15 | -4
CCOC(=O)c1c(C)c(C(=O)NC2CCCCCC2)c(C)n1C | · | · | -3% | -4 | -17
COc1ccc(C(=O)NC(=S)NNC(=O)c2ccc3ccccc3n2)cc1 | 5 | · | 5% | · | ·
COc1cccc(NC(=O)COC(=O)COc2cccc3c2OC(C)(C)C3)c1 | -6 | 1.3 | · | · | ·
Cc1cccc(N(CC(=O)NC2CCCC2)C(=O)c2nsc(Cl)c2Cl)c1C | -6 | 2.5 | -6% | -4 | ·
CCCOc1ccc(N2C(=O)CC(N3CCN(c4ccc([N+](=O)[O-])cc4)CC3)C2=O)cc1 (stereo unspecified) | -4 | -0.9 | · | · | ·

Compound activity (PubChem)
